PrP 5UTR inh: inhibition of PrP 5' UTR reporter expression. cell-based PrP 5' UTR mRNA reporter, plate reader. inhibition, % (test concentration not listed). 340,000 tested, 0.35% active;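 active means every replicate at 50% or more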;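 further: 0 = median of the neutral control wells; tested in H4 reporter cells; numbers are from one replicate; inactives centre near -14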
Mtb hypoxia rep: PubChem AID 1159583. M. tuberculosis hypoxia-regulated fluorescent reporter, fluorescence. 300,000 tested, 0.1% active. fluorescence inhibition, % (test concentration not listed);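 active means 35 to 45% if threefold the growth effect, above 45% if 1.5-fold the growth effect; inactive means the rest, general growth blockers included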;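 further: wells of about 50 µL received 100 nL stock; 0% = vehicle wells and 100% = reference inhibitor wells; whole bacteria with a GFP reporter of the hypoxia response; strong numbers were not always called active; many hits fall short of the cut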
ugtP null kill: growth inhibition of ugtP-null S. aureus, primary screen, RN4220 ugtP deletion, OD600 | 16 h; some inactives read as strong as hits | growth inhibition, % (test concentration not listed) | 330,000 tested, 0.54% active;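 active means z-score under -3 and OD600 up to 0.15 on both plates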;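 further: plate controls were untreated wells for no effect and antibiotic for full effect; wells of about 80 µL received 100 nL stock; the first replicate is given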
Bead autofluor: counter-screen for toxin protease inhibitors: compound fluorescence. compound autofluorescence counterscreen, microsphere flow cytometry; hits give high values. fluorescence intensity (no concentration beside the values). 360,000 tested, 3.1% active;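 active means at least 3 SD above the mean of all compounds, about 16000 in these data; inconclusive means too few beads counted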;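 further: 100 nL of 1 mM stock went into each well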
BJeLR viability: MLPCN primary cell-based screen for lethality selective to Ras in HRASV12 cells; BJeLR (HRASV12) viability, CellTiter-Glo ATP luminescence, 48 h; reference of the scale not given here; inhibition, % (test concentration not listed); 300,000 tested, 0.17% active; AID 1554, 2009;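 active means replicate mean above 50%; inconclusive means above 50% but judged a plate artefact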;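 further: 50 nL library stock added to about 25 µL; numbers are from one replicate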
Sa RN4220 lethal: growth inhibition of S. aureus RN4220, primary screen, OD600 | 330,000 tested, 0.33% active | 16 h | inhibition, % (concentration not given with the values) | AID 1259311, 2017;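 active means z-score of -3 or lower and OD600 up to 0.18 on both plates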;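 further: plate controls were untreated cells for no effect and reference antibiotic for full effect; stock transfer was 100 nL into about 80 µL; one replicate is shown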
Mtb hypoxia rep growth: recorded beside Mtb hypoxia rep, whose call it bears; growth inhibition, %; measured here: M. tuberculosis growth (absorbance);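 0% = vehicle and 100% = reference antibiotic; read after six days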
The depositor's hits bear a star; ? = inconclusive; . = no result given. Rows are unselected. Share with any hit: about 4.1%.

Structure	PrP 5UTR inh	Mtb hypoxia rep	Mtb hypoxia rep growth	ugtP null kill	Bead autofluor	BJeLR viability	Sa RN4220 lethal
O=C(NCCc1ccccc1)c1ccc(CS(=O)(=O)Cc2ccccc2F)o1	-12	-5	2	7	18882*	-22	2.4
COc1cc(NC(=O)c2cccc(Br)c2)nc(OC)n1	-24	-6	-7	-6	4749	-7	1.9
COC(=O)c1cc(NC2c3ccccc3C(=O)N2Cc2ccco2)cc(C(=O)OC)c1 (stereo not given)	-8	2	-9	5	4572	.	4.1
Cc1nc(NC2CCCC2)sc1C(=O)N(C)C	-18	.	.	6	4314	-2	-0.8
COc1ccc(OC)c(NC(=O)c2cc3ccccc3cc2OC)c1	-22	1	-3	-10	4414	-9	5.1
CC(=O)Nc1ccc(-c2csc(NC(=O)CCCc3cccs3)n2)cc1	-19	9	-1	-8	2118	-3	2.6
c1ccc(COc2ccc(CNCc3cccnc3)cc2)cc1	-29	7	-6	8	4133	2	4.7
CCCC(=O)NC(=S)Nc1ccccc1C(F)(F)F	-24	13	20	60	4291	-7	1.8
Cc1cc2nc(C3CCN(Cc4nnnn4Cc4cccs4)CC3)[nH]c2cc1C	23	4	8	-14	7596	10	0.0
COc1ccccc1NC(=S)NC(=O)C(C)(C)C	-20	-13	3	1	7083	11	-0.1
Cc1ccc(S(=O)(=O)N2CCN(C(=O)CNC(=O)c3ccc(Cl)cc3)CC2)cc1	3	9	3	10	3047	.	2.0
Cc1ccc(C2=Nc3cccnc3C(c3ccccc3)=NN2)cc1	-9	7	13	2	4097	1	13
N#CC1=C(N)C(C#N)(C#N)[C@H](c2cccnc2)[C@H]2CN(C(=O)OCc3ccccc3)CC=C12	-19	-3	-9	4	2136	-8	1.5
Cc1cc(-c2nn(-c3ccccc3F)cc2CN2CCC(C(N)=O)CC2)c(C)s1	-5	9	-7	11	4229	-4	2.1
CCN(C(=O)CSc1nnc(C)n1Cc1ccccc1)C1CCS(=O)(=O)C1 (stereo not given)	-10	-1	-6	1	4523	2	3.9
[C-]#[N+][C@H](O[C@@H]1O[C@H](CO)[C@@H](O)[C@H](O)[C@H]1O)c1ccccc1	-19	.	.	-3	4634	2	3.5
O=C(CSc1nnc(-c2ccc(F)cc2)c2ccccc12)NCC1CCCO1 (stereo not given)	-10	12	7	-5	4660	-15	3.0
CCOc1ccc(S(=O)(=O)NCCCl)cc1	-6	9	5	8	3398	6	3.9
CCc1ccccc1NC(=O)CSc1ccsc1[N+](=O)[O-]	-7	.	.	.	2024	-8	.
Cc1onc(-c2ccccc2)c1C(=O)N1CC(C)OC(C)C1 (stereo not given)	-20	10	5	3	3027	3	3.7
CCCOc1ccc(N2C(=O)CC(N(CCc3ccc(OC)c(OC)c3)C(=S)Nc3ccccc3)C2=O)cc1 (stereo not given)	-12	.	.	.	2208	-3	.
CC1(C)CC(=O)C(C=Nc2ccc3cn[nH]c3c2)=C(O)C1	-12	12	12	9	7401	-7	3.8
CCc1nnc(NC(=O)C2=NN(C3CCS(=O)(=O)C3)C(=O)CC2)s1 (stereo not given)	-3	4	-4	5	3851	2	3.4
Clc1cccc(-c2ccc(C=Nn3cnnc3)o2)c1	.	0	-13	3	.	.	0.6
O=S(=O)(c1ccc(F)cc1)N1CCc2ccccc21	-8	1	7	0	5611	12	0.6

Next entries.
Structure	PrP 5UTR inh	Mtb hypoxia rep	Mtb hypoxia rep growth	ugtP null kill	Bead autofluor	BJeLR viability	Sa RN4220 lethal
CCS(=O)(=O)Nc1cccc(-c2cc(-c3ccccc3)c3cc(C)ccc3n2)c1	-12	0	1	3	2798	-8	-0.8
Cc1nc(Nc2cccc(C(C)O)c2)c2nnn(Cc3ccccc3F)c2n1 (stereo not given)	-22	8	4	2	3864	15	0.5
CC1CN(C(=O)COC(=O)Cc2c(Cl)cccc2Cl)CC(C)O1 (stereo not given)	8	3	2	5	3592	.	4.3
CN(C)CCNC(=O)c1c(NC(=O)c2ccccc2)sc2c1CCCC2	-16	9	13	7	3059	-13	3.1
Cc1noc(/C=C/N(C)C)c1S(=O)(=O)N1CCC(C(=O)NC(C)(C)C)CC1	-17	4	8	2	5142	2	0.9
C[C@@H]1C[C@H]2[C@@H]3CCC4=CC(=O)C=C[C@]4(C)[C@@]3(F)[C@@H](O)C[C@]2(C)[C@@]1(O)C(=O)COP(=O)(O)O	-3	.	.	.	5667	-3	.
Cc1ccc(/C=C/C(=O)OCC(=O)NCCc2ccc(S(N)(=O)=O)cc2)o1	-26	-4	7	-2	2851	.	-0.9
CC(C)CS(=O)(=O)C1=NN2C(=N)/C(=C\c3ccc(OC(=O)c4ccco4)cc3)C(=O)N=C2S1	-7	.	.	.	5819	4	.
O=C(CNC(=O)c1ccccc1)OCc1nc2ccccc2s1	-87	0	-5	-6	2194	3	2.3
CC(C)[C@H](NC(N)=O)C(=O)Nc1ccc(F)c(Cl)c1	-8	-2	8	2	4406	5	2.0
CCOc1ccc(NC(=O)CN2CCN(CC(=O)Nc3ccc(Cl)c(C(F)(F)F)c3)CC2)cc1	-8	0	1	-15	26476*	4	-1.8
Cc1cc2c([nH]c3ccccc32)c(C)n1	-13	-6	-5	-1	4378	-3	4.7
COc1cc2ccccc2cc1C(=O)NC1CCC(C)CC1 (stereo not given)	-47	12	11	-1	.	.	5.6
O=C(O)CNC(=O)CCN1C(=O)c2ccccc2C1=O	-14	7	9	2	9748	-3	0.9
CCOC(=O)c1cc(C)sc1NC(=O)C(c1ccccc1)c1ccccc1	-8	4	2	69	2685	-3	2.1
Cc1ccc(Cn2c(SCC(=O)NCC3CCCO3)nc3ccsc3c2=O)cc1 (stereo not given)	-5	2	15	5	3274	4	7.0
COC(=O)c1cc(-c2c(-c3ccc4c(c3)OCO4)noc2-c2ccsc2)cc([N+](=O)[O-])c1	-23	3	-5	3	3682	4	-1.8
CC(C)(C)c1ccc(-n2ncc3c2CCCC3NC(=O)c2csnn2)cc1 (stereo not given)	-10	-8	-34	-21	?	7	-7.2
CCCN(CC(=O)Nc1cc(C)on1)CC(=O)Nc1ccccc1C	-8	6	2	-2	3962	.	4.4
CCN(CC)S(=O)(=O)c1ccc(N2CC(C(=O)NCCc3ccc(Cl)cc3)CC2=O)cc1 (stereo not given)	-15	-1	8	1	4169	.	3.8
O=C(CCN1C(=O)/C(=C/c2ccc(F)cc2)SC1=S)N[C@@H](CO)Cc1ccccc1	-18	14	-2	-3	5423	2	-0.8
Cc1cccn(Cc2c(F)cccc2Cl)c1=O	-16	17	12	2	4191	-3	3.1
O=c1cc2c(c(-c3ccccc3)n1Cc1ccccc1)[C@@H](CCO)NC2	-24	-7	7	2	3665	.	2.2
O=S(=O)(c1ccc(Cl)s1)N1CCc2ccccc2C1	.	-1	-8	0	8584	-14	1.0
COc1cccc(C(=O)Nc2c(C)n[nH]c2C)c1	-20	-2	3	4	10337	8	2.4

A different layout for two compounds above:
Each structure is followed by: PrP 5UTR inh, Mtb hypoxia rep, Mtb hypoxia rep growth, ugtP null kill, Bead autofluor, BJeLR viability, Sa RN4220 lethal
O=c1cc2c(c(-c3ccccc3)n1Cc1ccccc1)[C@@H](CCO)NC2
    -24, -7, 7, 2, 3665, ., 2.2
O=S(=O)(c1ccc(Cl)s1)N1CCc2ccccc2C1
    ., -1, -8, 0, 8584, -14, 1.0

Later entries:
Structure	PrP 5UTR inh	Mtb hypoxia rep	Mtb hypoxia rep growth	ugtP null kill	Bead autofluor	BJeLR viability	Sa RN4220 lethal
O=C(O)c1ccccc1-c1ccccc1C(=O)NCc1ccco1	-25	.	.	0	6847	7	-0.5
C[N+]12CCC(CC1)C(C(O)(c1cccc(Cl)c1)c1cccc(Cl)c1)C2 (stereo not given)	-23	2	17	-17	3884	1	0.1
CCCCN(Cc1ccccc1)C1CCN(Cc2ccccc2)CC1	-6	9	20	3	3836	1	1.5
Cc1ccc(S(=O)(=O)N2CCOC23CCN(C(=O)c2cc(Cl)ccc2Cl)CC3)cc1	-13	-10	-6	-7	5437	3	-5.0
COc1ccc(/C=C/C(=O)Nc2cccnc2Cl)cc1	-44	-3	10	-2	3502	11	0.5
O=C1C(Nc2ccc(O)cc2)=C/C(=N/S(=O)(=O)c2cccs2)c2ccccc21	-9	.	.	.	4351	10	.
CCC(=NCCc1c(C)[nH]c2ccc(OC(F)(F)F)cc12)C1=C(O)CC(c2ccccc2)CC1=O (stereo not given)	-25	-4	3	1	3756	19	-0.4
O=c1c2c(-c3cccs3)csc2ncn1-c1ccc(Br)cc1	-1	.	.	8	2476	5	4.1
CCN(CC)S(=O)(=O)c1cc(NC(=O)c2n[nH]c(=O)c3ccccc23)ccc1C	-30	5	1	4	4177	0	4.4
CC1(C)OC(=O)C(=NNc2ccccc2C(=O)O)C(=O)O1	-4	-1	-3	1	5310	-16	0.8
Cc1cc(=O)c(C(=O)O)nn1-c1ccccc1Cl	-22	-5	-5	13	4857	-2	-0.5
CC(C)(C)N(CC#CCC1(O)c2ccccc2-c2ccccc21)CCO	-14	8	-4	-4	4206	4	4.1
Cc1cccc(C)c1NC(=O)COC(=O)c1cccc2c1C(=O)c1ccccc1C2=O	-61	3	7	8	2469	0	16
O=S1CC/C(=N\O)c2ccccc21 (stereo not given)	-5	.	.	.	4181	-8	.
CN(C)S(=O)(=O)c1ccc(C(=O)Nc2ccc(Cl)cc2)cc1	-43	3	0	0	5910	1	3.1
O=C1NC2(CCCCCC2)C(=O)N1Cc1ccccc1	11	0	5	7	3718	0	4.5
COc1ccc(CC(=O)NNC(=O)CSc2nnc(Cc3ccc(OC)cc3)n2-c2ccccc2)cc1	-7	6	11	8	2001	-6	0.4
Cc1csc(=O)n1CCC(=O)OCC(=O)Nc1cc([N+](=O)[O-])ccc1Cl	-9	-11	2	4	5262	-3	1.5
O=C(CSCc1ccccc1)Nc1cccc(C(=O)Nc2ccc(C(=O)O)cc2)c1	-7	.	.	3	2303	.	2.0
Cc1cccc(OCc2nnc(SCC(=O)Nc3cccc(C(=O)N4CCOCC4)c3)n2C)c1	-16	15	2	2	2022	4	1.9
CC(C)(C)NC(=O)NC(=O)CN1CCc2ccccc21	-41	7	8	2	4559	12	-1.9
CCCCCN(C(=O)COC(=O)COc1c(C)cc(C)cc1C)c1c(N)n(CCCC)c(=O)[nH]c1=O	-13	3	-4	20	4448	-4	3.8
CCOc1ccc(-n2cc(C(=O)NCCOC)c3cc(OC)c(OC)cc3c2=O)cc1	-26	4	-6	2	3409	3	-0.3
COc1ccc(F)cc1S(=O)(=O)NCC(c1ccc2c(c1)OCO2)N1CCN(C)CC1 (stereo not given)	-4	-1	2	-1	.	6	0.5
Cc1nc(CS(=O)(=O)c2ccccc2)cc(N2CCN(c3ccccc3F)CC2)n1	-19	0	1	-1	3511	2	1.0

The list goes on.
Structure	PrP 5UTR inh	Mtb hypoxia rep	Mtb hypoxia rep growth	ugtP null kill	Bead autofluor	BJeLR viability	Sa RN4220 lethal
CCCc1noc(-c2cccc([N+](=O)[O-])c2)n1	-22	6	5	3	3737	-1	5.7
COC(/C=C/Nc1ccc(OC)cc1)=C(C#N)C#N	3	4	7	-2	9208	-7	3.7
COc1ccc(-c2nn3c(C4CCCCC4)nnc3s2)cc1OC	4	8	14	-9	16665*	8	0.8
Cc1ccc(NC(=S)N2CCC(c3ccccc3)C2)c(Cl)c1 (stereo not given)	-15	3	1	-10	4072	-11	-1.9
Cc1nn(C)c(C(=O)NNC(=S)NCc2ccco2)c1Cl	-11	1	9	1	3951	-2	4.7
CC1(C)Cc2ccccc2C(=O)N1	-22	1	3	-3	2476	6	7.4
CCOC(=O)Nc1ccc2c(c1)N(C(=O)CN1CCN(C)CC1)c1ccccc1CC2	-15	-1	1	3	3287	-3	2.3
O=S(=O)(Nc1ccc(Br)cc1)c1cccc2nonc12	-18	22	16	-7	5551	3	2.8
Cc1ccsc1CN(C)C(=O)CN1C(=O)NC(c2ccccc2)(c2ccccc2)C1=O	-21	12	6	-5	4005	.	2.8
CN(CCCCCC(=O)/C=N/O)Cc1ccccc1	-31	.	.	.	2514	-1	.
O=C(Cc1n[nH]c(=O)c2ccccc12)N1CCN(S(=O)(=O)c2ccc(F)c(Cl)c2)CC1	-2	5	11	6	3221	.	5.6
COc1ccc(-c2c(C#N)c(N)nc(Sc3ccc(Cl)cc3)c2C#N)cc1	-146	.	.	.	3514	7	.

High-throughput results deposited in PubChem BioAssay by several laboratories.
